# Screening data deposited in PubChem by National Center for Advancing Translational Sciences (NCATS).
# GALK inhibitor: inhibitors of human galactokinase (GALK). Potency, µM (highest dose often 57.5 µM), for inactives: at the top dose activity, negative = inhibition, usual class: inhibitors. recombinant GALK, Kinase-Glo ATP luminescence, 1 h. AID 1347072. 44,000 tested, under 10 active;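 also: plate controls were full GALK reaction for no effect and reaction lacking GALK for full effect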
# Target sequence (P51570 whole entry, looked up): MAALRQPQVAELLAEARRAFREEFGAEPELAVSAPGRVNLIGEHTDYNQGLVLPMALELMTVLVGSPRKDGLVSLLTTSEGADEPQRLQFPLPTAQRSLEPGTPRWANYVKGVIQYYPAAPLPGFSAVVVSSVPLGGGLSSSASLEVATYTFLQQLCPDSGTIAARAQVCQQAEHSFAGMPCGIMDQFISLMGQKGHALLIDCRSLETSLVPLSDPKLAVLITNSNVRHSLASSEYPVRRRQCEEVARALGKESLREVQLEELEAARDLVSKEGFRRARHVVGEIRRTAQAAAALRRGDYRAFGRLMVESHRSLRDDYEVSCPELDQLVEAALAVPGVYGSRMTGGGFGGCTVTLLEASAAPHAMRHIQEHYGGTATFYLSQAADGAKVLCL
#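 Human GALK (5 nM) was incubated with 35 uM ATP and 100 uM galactose in 20 mM HEPES pH 8.0 with MgCl2, NaCl, DTT and BSA for 1 h at room temperature. Remaining ATP was measured by Kinase-Glo Plus luminescence.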
# B2AR arrestin ag: agonists recruiting beta-arrestin to human beta2-adrenergic receptor; P07550; HTLA Tango cells, beta-arrestin recruitment, luciferase luminescence, 18 h; Potency, µM (doses to about 46.1 µM), for the others: top-dose activation, most hits filed as activators; 44,000 tested, under 10 active; AID 1347077;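 also: potency is read from the fitted curve at half-maximal effect; 0% = DMSO and full agonism = EC100 isoproterenol or metaproterenol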
#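 First, Tango cells carrying beta2-AR and beta-arrestin fusions received compound up to 46 microM. After 18 hr at 37 degrees C, luciferase substrate was added for 15 minutes, then luminescence gave %Activity for curve fitting.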
# p53null 39C kill: p53 null cell cytotoxicity, nonpermissive temperature. 55,000 compounds, 0.97% hits. AID 904. H1299 p53-null (neo) cells, 39C, ATPlite viability, 24 h. Potency, µM (highest dose often 46.1 µM), for the others: at the top dose activity, negative = cell killing, hits mostly cytotoxic;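 also: potency is read from the fitted curve at half-maximal effect; 0% = DMSO only and -100% = full killing by 100 µM tamoxifen; nearly all actives have a fitted effect of over 50% in size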
#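 Following overnight plating at 37C (600 cells/well), H1299-neo or H1299-p53A138V cells are dosed up to 46 uM. Incubation lasts 24 hr at 39C before ATP detection.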
# p53null 32C kill: kills p53 null cells at the permissive temperature | H1299-neo p53 null cells, ATP luminescence, 24 h, 32C | 55,000 compounds, 0.62% hits | AID 903 | Potency, µM (top dose mostly 46.1 µM), for the others: at the top dose activity change, negative = cytotoxicity, usual class: cytotoxic;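 also: potency is read from the fitted curve at half-maximal effect; 0% = DMSO only and -100% = full killing by 100 µM tamoxifen; nearly all actives have a fitted effect of over 55% in size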
#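 AC50 values derive from Hill modelling of qHTS concentration-response data (up to 46 uM) in H1299-neo cells. Cells were treated 24 h at 32C following overnight attachment at 37C; viability was read as cellular ATP.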
# TSG101-PTAP inh: blocks PTAP binding to human TSG101, validation; Q99816; Fluorescence polarization, FITC-PTAP peptide/Tsg101, 20 min; Potency, µM (highest dose often 115 µM), inactives show at the top dose activity change, negative = inhibition, hits mostly inhibitors; 44,000 tested, under 10 active; also: potency is read from the fitted curve at half-maximal effect; 0% is about no effect
# Target sequence (Q99816 whole entry, looked up): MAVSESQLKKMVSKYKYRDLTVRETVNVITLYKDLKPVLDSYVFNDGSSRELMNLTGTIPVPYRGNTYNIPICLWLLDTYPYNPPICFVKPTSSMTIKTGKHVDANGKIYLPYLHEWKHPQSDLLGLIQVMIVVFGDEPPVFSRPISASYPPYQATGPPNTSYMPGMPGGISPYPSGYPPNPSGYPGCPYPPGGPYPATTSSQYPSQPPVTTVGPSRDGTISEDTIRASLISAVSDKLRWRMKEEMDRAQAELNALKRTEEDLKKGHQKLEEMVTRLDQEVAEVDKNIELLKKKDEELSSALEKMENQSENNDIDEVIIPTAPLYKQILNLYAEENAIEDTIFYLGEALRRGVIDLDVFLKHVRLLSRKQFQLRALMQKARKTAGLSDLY
#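 Fluorescence polarization: Tsg101 binding domain (10 uM final) in 10 mM HEPES pH 7.5, 0.15 M NaCl, 0.01% Tween 20, 3 mM EDTA, 0.1 mM TCEP; compounds pinned; FITC-PTAP peptide 50 nM final; 20 min, r.t.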
# FH mod: Identification of activators of human fumarate hydratase by quantitative high-throughput screening; Fumarate hydratase, mitochondrial (Homo sapiens), P07954; FH coupled MDH/diaphorase resazurin fluorescence, 15 min; Potency, µM (series often up to 79.9 µM), for inactives: top-dose activity change, negative = inhibition, usual class: inhibitors; 54,000 compounds, 0.22% hits; also: potency is read from the fitted curve at half-maximal effect; % is scaled to controls: 0 for no effect and ±100 for the full control effect; the screen sought activators but most active calls are inhibition curves; nearly all actives have a fitted effect of over 45% in size
# Active calls of the source: *; u = inconclusive; x = no result given; [ ] = remark or other dose. Calls follow the shape of the dose curve; as a rule, active = well fitted curve in the direction sought with a large enough effect; inconclusive = small, poorly fitted or top-dose-only effect, or another doubt; inactive = no such curve, though single readings can be large; an effect the other way counts as inactive or inconclusive.
SMILES,GALK inhibitor,B2AR arrestin ag,p53null 39C kill,p53null 32C kill,TSG101-PTAP inh,FH mod
Cc1cccc(C)c1Nc1sc(C(=O)c2ccccc2)c(N)c1S(=O)(=O)c1ccccc1,-1.0%,0.8%,-16.0%,29.0%,-1.0%,-4.6%
COC(=O)CCCCCn1c(-c2ccccc2)cn2c3c(=O)n(C)c(=O)n(C)c3nc12,9.2%,1.1%,-16.3%,3.0%[9.22 µM],0.5%,-16.3%
Cc1ccc(CNC(=O)C2CCN(S(=O)(=O)c3cn(C)cn3)CC2)cc1,-1.5%,0.4%,4.8%,-0.6%,-3.0%,3.1%
CC(C)c1ccc(CNCCSc2nnnn2-c2ccccc2)cc1,7.9%,-1.3%,-1.9%,-8.5%,0.8%,-12.1%
COc1ccc(NC(=O)CN2CCCN(S(=O)(=O)c3ccc(Br)cc3)CC2)c(OC)c1,-2.3%,-2.2%,x,x,-0.9%,u
Cc1cc(C)c2c(=O)cc(C(=O)Nc3c(C)n(C)n(-c4ccccc4)c3=O)oc2c1,4.3%,-1.9%,-1.6%,3.0%,-1.7%,-32.2%
Fc1ccc2c(c1)NC(c1ccncc1)=NC(c1cccs1)=N2,6.7%,-0.8%,-3.7%,-3.9%,1.7%,-4.8%
COc1cccc(NC(=O)c2cc3c(=O)n(Cc4cccnc4)ccc3nc2C)c1,-1.5%,-1.3%,4.6%,-1.4%,-2.4%,4.7%
COc1ccc2c(c1)c(=O)c(C(=O)c1ccc(F)cc1)cn2CC(=O)Nc1ccc2c(c1)OCO2,8.4%,-0.6%,u,-28.6%,1.4%,-4.5%
COc1ccc(CCNc2nc(-c3ccc(Cl)cc3)cc(C(F)(F)F)n2)cc1OC,0.0%,0.4%,18.2%,5.7%,-4.7%,u
CCCCOc1ccc(C(=O)Nc2ccc3c(c2)CCCN3C(=O)c2cccs2)cc1,2.4%,-0.9%,19.1%,19.8%,-5.1%,-11.4%
Cc1cccc(C)c1N1CC(c2nc3ccccc3n2CC(=O)OC(C)C)CC1=O (stereo unspecified),-11.8%,-2.8%,-31.2%,-4.4%,0.4%,-3.9%
CCOc1ccccc1CNC(=O)c1cc2c(=O)n(Cc3cccnc3)ccc2nc1C,0.1%,-0.6%,0.7%,-3.1%,-4.3%,u
Clc1cccc(-n2ncc3c(Nc4ccc5c(c4)OCCO5)ncnc32)c1,-7.2%,2.9%,-6.2%,-4.4%,2.1%,-15.2%
CC1(C)S[C@@H]2[C@H](NC(=O)C(c3ccccc3)S(=O)(=O)O)C(=O)N2[C@H]1C(=O)O (stereo partly specified),x,x,x,x,x,-1.2%[53.3 µM]

# A stretch from further up, as a working copy:
SMILES,GALK inhibitor,B2AR arrestin ag,p53null 39C kill,p53null 32C kill,TSG101-PTAP inh,FH mod
Cc1cccc(C)c1N1CC(c2nc3ccccc3n2CC(=O)OC(C)C)CC1=O (stereo unspecified),-11.8%,-2.8%,-31.2%,-4.4%,0.4%,-3.9%
CCOc1ccccc1CNC(=O)c1cc2c(=O)n(Cc3cccnc3)ccc2nc1C,0.1%,-0.6%,0.7%,-3.1%,-4.3%,u
Clc1cccc(-n2ncc3c(Nc4ccc5c(c4)OCCO5)ncnc32)c1,-7.2%,2.9%,-6.2%,-4.4%,2.1%,-15.2%
CC1(C)S[C@@H]2[C@H](NC(=O)C(c3ccccc3)S(=O)(=O)O)C(=O)N2[C@H]1C(=O)O (stereo partly specified),x,x,x,x,x,-1.2%[53.3 µM]

# Further results.
SMILES,GALK inhibitor,B2AR arrestin ag,p53null 39C kill,p53null 32C kill,TSG101-PTAP inh,FH mod
CCN(CC)S(=O)(=O)c1ccc(OC)c(-n2cnnn2)c1,1.8%,0.7%,-10.1%,6.6%,-8.3%,1.5%
NS(=O)(=O)c1ccc(CCNC(=O)c2ccc3nc(Cc4ccccc4)oc3c2)cc1,-6.5%,-0.7%,-20.7%,1.7%,-3.9%,-6.2%
Cc1ccc(OCc2cc(=O)n3c4c(sc3n2)CCCC4)c(C)c1,6.8%,-1.4%,-1.6%,-3.1%,0.3%,5.4%
CCOc1ccc(CNC(=O)c2ccc3nc(Cc4ccc(OC)cc4)oc3c2)cc1OC,-0.4%,0.0%,-23.1%,10.7%,0.0%,u
COc1cc2c(cc1OC)CN(C(=O)/C=C/c1c(-c3ccccc3)n(C)c3ncccc13)CC2,x,x,x,x,x,-17.8%
Cc1cc(-c2ncc(-c3cccnc3)cc2/C=C/c2ccccc2)cnc1-c1cccnc1,x,x,x,x,x,5.1%
CCOC(=O)c1cccc(NC(=O)c2cc(-c3ccc(Cl)s3)nc3ccccc23)c1,-1.8%,0.5%,-11.6%,-6.0%,0.6%,-19.8%
Cc1cccc(-c2c3c(=O)n(C)c(=O)n(C)c3c3c(C)nc4ccccc4n23)c1,2.3%,0.2%,2.5%,6.7%,0.9%,3.9%
CCN(C(=O)Nc1cn(CC(C)C)c(=O)c2ccccc12)c1cc(C)ccc1C,-2.5%,-0.8%,-18.1%,12.2%,-2.5%,13.0%
CCOc1ccc(C(=O)c2cn(CC(=O)Nc3ccc(Cl)cc3)c3cc4c(cc3c2=O)OCO4)cc1,1.8%,-0.6%,-7.4%,20.6%,-4.0%,-15.5%
Cc1nc(N2CCN(C(=O)c3ccco3)CC2)c2c3c(sc2n1)CCCC3,x,x,-2.2%,12.8%,x,-2.5%
N#Cc1c(-c2ccccc2)cc(-c2ccccc2)nc1SCC(=O)Nc1ccc(Cl)cc1,0.3%,-2.1%,-6.9%,0.4%,-3.4%,5.4%
CC(=O)c1cc(-c2ccccc2)n(CC(=O)NC2CCCCC2)c1C,-0.3%,-1.0%,-1.3%,11.0%,2.0%,8.0%
O=C(CSc1nnc(-c2ccc(O)cc2)o1)c1ccc(Br)cc1,-5.8%,3.2%,5.0%,18.9%,-1.5%,-23.6%
CC1=Nc2cc(C(=O)NCc3ccccc3Cl)ccc2Sc2c(C)ccc(C)c21,6.7%,-1.9%,43.6%[activator],27.0%,-4.2%,-14.2%
CCc1ccc(NC(=O)c2cc3c(=O)n(Cc4cccnc4)ccc3nc2C)cc1,-2.2%,-0.7%,-1.9%,4.6%,0.3%,1.0%
COc1ccc(C2NC(=O)N(C)C3=C2C(=O)N(c2ccccc2)C3)cc1 (stereo unspecified),-0.5%,-0.1%,-0.9%,-19.9%,-9.8%,9.7%
CCOc1ccc2oc(=O)cc(CN3CCN(c4ccc(Cl)cc4)CC3)c2c1,2.1%,-0.9%,-11.3%,-2.7%,1.0%,-23.9%
COc1ccc(-c2cc(C(C)=O)c(C)n2CCC(=O)Nc2cccc(C)c2C)cc1,-4.4%,-1.9%,-5.6%,-5.5%,1.2%,-0.7%
COc1cc(NC(=O)CN2C(=O)C(c3ccc(Cl)cc3)=NC23CCCCC3)cc(OC)c1,2.8%,-3.0%,18.3%,17.6%,-8.3%,-16.3%
Cc1cccc(CSc2nnc(CCCCCN)o2)c1,-1.7%,-1.1%,-12.7%,5.0%,-10.6%,-4.8%
CC(C)Cn1cc(NC(=O)NCc2ccc(Cl)cc2)c2ccccc2c1=O,4.6%,-0.5%,6.5%,0.4%,-10.9%,u
COc1ccc2oc(=O)cc(CN3CCN(c4ccc(F)cc4)CC3)c2c1,2.7%,-1.4%,7.4%,3.0%,3.5%,-6.5%
COC(=O)c1nnn(CC(=O)NC(=O)Nc2c(C)cccc2C)c1C(=O)OC,1.7%,1.0%,-5.6%,3.7%,-3.5%,0.5%
Cc1ccc(-c2csc(/C(C#N)=C/c3ccccc3Cl)n2)cc1,-18.2%,0.6%,0.6%,13.3%,15.3%,-10.9%
COc1cc2ncnc(Nc3ccc(F)c(Cl)c3)c2cc1O,x,x,x,x,x,-8.8%
O=C1CS(=O)(=O)C2(C(=O)N(Cc3ccc(F)cc3)c3ccccc32)N1c1cccc(C(F)(F)F)c1 (stereo unspecified),4.1%,2.7%,4.5%,13.2%,10.3%,-27.2%
CCn1cc(CNC(=O)c2cc(-c3ccc(C)cc3)nc3ccc(Br)cc23)c(C)n1,2.9%,0.2%,-20.0%,-10.9%,-0.8%,-1.0%
COc1ccccc1NC(=O)c1cccc(S(=O)(=O)N2CCCCCC2)c1,1.7%,-0.3%,-8.3%,13.7%,1.5%,-5.5%
CCOc1ccc(/C=C/c2nc(C#N)c(N3CCCCCC3)o2)cc1,-3.7%,-0.6%,-4.4%,-5.8%,2.1%,-6.0%
CCCNC(=O)CSc1nc2nc(C)c(Cc3ccccc3Cl)c(C)n2n1,0.6%,0.3%,-2.9%,3.6%,-6.2%,-7.0%
COc1ccc(CCNc2nc(-c3ccc(F)cc3)cc(C(F)(F)F)n2)cc1OC,6.5%,0.8%,-13.6%,7.4%,-0.1%,-32.6%
Cc1ccc(Nc2sc(C(=O)c3ccccc3)c(N)c2C(N)=O)cc1,-0.6%,-2.5%,3.0%,2.0%,-0.5%,-36.5%
COc1ccc(NC(=O)CCCSc2nc(-c3ccco3)cc(C(F)(F)F)n2)cc1,0.7%,0.8%,u,2.3%,0.2%,-15.0%
O=C(NCCc1ccc(Cl)cc1)c1ccc2nc(Cc3ccccc3)oc2c1,-2.8%,0.0%,-16.9%,-1.9%,2.2%,-33.0%
O=C(Nc1ccc(OC(F)(F)F)cc1)c1noc2c1CCCC2,-4.0%,1.1%,-5.7%,-2.6%,-4.3%,-0.1%
COc1cc(OC)cc(C(=O)Nc2ccc(S(=O)(=O)Nc3onc(C)c3C)cc2)c1,1.8%,-1.8%,0.9%,-1.2%,-4.5%,-10.8%
O=C(Nc1ccccc1C(=O)OCc1cc(=O)n2ccsc2n1)c1cccc(F)c1,-3.4%,-0.2%,-7.4%,-5.0%,-0.2%,-13.8%
COc1ccc(-c2[nH]nc3nc(-c4cc(Br)ccc4OC)cc(C(=O)O)c23)cc1,-1.1%,-0.3%,1.5%,-1.0%,1.5%,-4.7%
O=C(Nc1cccc(O)c1)c1cc(-c2ccccc2F)no1,3.2%,-0.4%,u,0.1%,0.8%,3.1%
CCCCCCCCCCCCc1ccc(S(=O)(=O)Nc2nncs2)cc1,x,x,x,x,x,u
COc1ccc(Cl)cc1NC(=O)CCN1C(=O)c2ccccc2Sc2ncccc21,0.0%,-1.1%,1.1%,-4.2%,-7.9%,3.8%
CCCCN(CC)C(=O)c1cc2c(=O)n3ccccc3nc2n1C,u,0.5%,-4.9%,7.2%,1.0%,1.4%
COc1cc(OC)c(NC(=O)CCc2c(C)nc3cc(-c4ccccc4OC)nn3c2C)cc1Cl,8.8%,0.8%,-4.5%,-3.2%,2.1%,-17.2%
CCc1ccc(NC(=O)CN2C(=O)C(c3ccc(F)cc3)=NC2(C)C)cc1,-2.0%,-2.9%,-10.9%,0.5%,-2.4%,-0.9%
CCOc1ccccc1NC(=O)c1cc2c(=O)n(Cc3cccnc3)ccc2nc1C,3.3%,-0.4%,16.9%,0.2%,-2.1%,12.3%
CCOc1ccc(CNCc2c(C(=O)O)c(C)n(Cc3ccc(F)cc3Cl)c2C)cc1,0.6%,-1.4%,-9.3%,9.3%,-6.6%,-7.7%
COCCCn1c(=N)c(C(=O)NC2CCCC2)cc2c(=O)n3ccccc3nc21,3.3%,-2.1%,0.1%,-2.3%,-4.5%,-14.4%
COc1ccc(-c2cc3nc(C)c(CCC(=O)NCc4ccccc4Cl)c(C)n3n2)c(OC)c1,0.8%,-1.8%,-9.1%,10.7%,-9.0%,u

# Not all compounds are listed. The share of hits here may be higher or lower than overall.
